AF4-AF9 inh – inhibitors of human MLL-AF4/AF9 interaction; P42568; AlphaScreen, biotin-AF4 peptide binding to FLAG-AF9; inhibition, % at 10 µM; actives 0.47% (n = 350,000); AID 651704;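 active = every replicate reaching a set inhibition limit, whatever the replicate mean, cut at about 25% in these data; inconclusive = mean inhibition reaches that limit but some replicates miss it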;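 also: 0% = plate neutral control median and 100% = total signal loss; the record names both 10 and 1 µM as test concentration; the first replicate is given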
Target sequence (P42568 whole entry, looked up): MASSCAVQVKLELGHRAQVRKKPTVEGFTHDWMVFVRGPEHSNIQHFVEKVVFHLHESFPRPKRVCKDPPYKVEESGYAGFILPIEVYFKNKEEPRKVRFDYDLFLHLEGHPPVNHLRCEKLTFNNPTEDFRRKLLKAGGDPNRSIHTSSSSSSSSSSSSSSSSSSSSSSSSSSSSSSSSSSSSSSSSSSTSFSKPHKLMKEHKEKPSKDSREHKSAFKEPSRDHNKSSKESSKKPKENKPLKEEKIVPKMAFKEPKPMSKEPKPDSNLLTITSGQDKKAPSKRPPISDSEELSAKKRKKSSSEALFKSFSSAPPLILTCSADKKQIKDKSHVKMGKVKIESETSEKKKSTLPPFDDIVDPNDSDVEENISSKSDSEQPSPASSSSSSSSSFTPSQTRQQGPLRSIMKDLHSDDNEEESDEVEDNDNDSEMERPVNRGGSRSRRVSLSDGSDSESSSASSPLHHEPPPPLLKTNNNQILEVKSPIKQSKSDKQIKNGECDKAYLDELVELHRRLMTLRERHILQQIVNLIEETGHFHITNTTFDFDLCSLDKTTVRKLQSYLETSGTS
Vif A3G – HIV-1 Vif–A3G interaction blockers – biochemical, TR-FRET, GST-Vif 1-94, biotin-A3G peptide, dose response retest, primary screen (AID 1117319). TR-FRET GST-Vif / biotin-A3G peptide binding; higher % means a stronger effect; test concentration not given here; strong numbers were not always called active. inhibition, %, or IC50 in µM where a hit was titrated. actives 0.57% (n = 260,000);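 active = above the screen mean plus three standard deviations and confirmed in dose response; inconclusive = results disagree or hit not tested in dose response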;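 also: Vif residues 1-94 fused to GST binding biotinylated APOBEC3G peptide 110-148; 0% = full assay without inhibitor and 100% = GST in place of GST-Vif; retest series ran down from 100 µM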
RanGTP-Imp inh – disruptors of Ran-importin-beta complex formation – biochemical, FRET, CFP-Ran, YFP-importin-beta, homogeneous, primary screen; cell-free CFP-Ran/YFP-importin-beta FRET ratio; inhibition, % (concentration not given with the values); actives 1.1% (n = 300,000);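 active = most replicates above 15%; inconclusive = exactly half above 15%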;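 also: 0% = DMSO wells and 100% = Ran loaded with GDP instead of GTP; wells of about 40 µL received 100 nL stock; the first replicate is given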
Beta apoptosis – beta cell apoptosis inhibition; protection from apoptosis, % (test concentration not listed); INS-1E cytokine-induced death, ATP luminescence, 48 h; percent of positive-control rescue, neutral wells zero; actives 0.8% (n = 300,000);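 active = all replicates at 75% or more, or half of them and the mean; inconclusive = half reach 75% but not the mean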;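 also: 0% = cytokine-treated negative control wells and 100% = positive control rescue; higher means more ATP so stronger rescue from cytokine killing; wells of about 40 µL received 100 nL stock; the first replicate is given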
T cruzi inh – T. cruzi replication inhibition. T. cruzi beta-gal in NIH3T3, luminescence, 90 h. inhibition, % (no concentration beside the values). actives 1.4% (n = 300,000);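 active = mean inhibition across valid replicates above about 55%, limit read from the data; inconclusive = mean below that limit but half or more replicates reach it; inactive = mean below it, under half of replicates reach it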;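 also: signal also drops with host cell toxicity which is not excluded here; 0% = plate median of DMSO wells and 100% = zero luminescence signal; higher percent means less beta-gal luminescence so fewer parasites; stock transfer was 50 nL into about 50 µL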
Calb FLC – affects C. albicans growth with fluconazole. actives 0.57% (n = 300,000). growth inhibition, % (concentration not given with the values). C. albicans CaCi-2 (fluconazole-resistant clinical isolate) + fluconazole, Alamar Blue growth, 48 h;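 active = most replicates above 75%; inconclusive = exactly half above 75%; inactive = most below 75%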;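 also: all wells also contain fluconazole at 8 µg/ml as a sub-toxic cotreatment; 0% = median of DMSO wells and 100% = median of geldanamycin control wells; wells of about 8 µL received 7.5 nL stock; the first replicate is given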
Ecoli rRNA inh – inhibitors of bacterial rRNA selective over humanized ribosomes | E. coli WT GFP vs humanized-ribosome RFP mutants, fluorescence, 24 h; active compounds read low; DMSO median 0, no signal -100 | GFP signal change (wild-type ribosome), % (no concentration beside the values) | actives 1.6% (n = 350,000) | AID 720706;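 active = significant combined selectivity score with lowered wild-type GFP, culture density cut under 30%, mutant RFP and density less affected; inactive = any of these conditions unmet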; also: one replicate is shown; some compounds called inactive have numbers as strong as hits
A1 inh – inhibitors of the anti-apoptotic protein A1, read as caspase activation; actives 0.066% (n = 330,000); caspase activation, % (no concentration beside the values); AID 2462; MEF A1-2A-BIM cells, Caspase-Glo 3/7 luminescence, 3 h; percent of clofoctol response, vehicle zero;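 active = over half of replicate activation scores above 10%, or exactly half above 10 with the replicate mean above 10; inconclusive = replicate mean below 10 yet half the replicates above 10; inactive = over half of replicates below 10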;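 also: wells of about 30 µL received 50 nL stock; many hits fall short of the cut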
Ecoli rRNA inh OD600 – further read-out of Ecoli rRNA inh, marked with its call; OD600 change, %; measured here: OD600 growth;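 optical density of the mix in the first replicate; 0 = DMSO median and -100 = no signal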
Ecoli rRNA inh RFP – further read-out of Ecoli rRNA inh, marked with its call; RFP signal change, %; measured here: RFP humanized mutant strains;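 first replicate; 0 = DMSO median and -100 = no signal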
An asterisk follows results filed as active; ? = inconclusive; . = no result given; & = joins results of further samples. Only part of the results is shown; rates above refer to the full screens.

Under each structure: AF4-AF9 inh	Vif A3G	RanGTP-Imp inh	Beta apoptosis	T cruzi inh	Calb FLC	Ecoli rRNA inh	Ecoli rRNA inh OD600	Ecoli rRNA inh RFP	A1 inh
- CC(=O)c1cccc(NC(=O)Nc2cccnc2)c1
  .	8%	6.6	-3	-1	-11	.	.	.	-0.8
- O=C1c2ccccc2C(=O)N1CCCn1nnc(-c2ccc(N3CCOCC3)cc2)n1
  .	-5%	-4.0	-6	-9	3	.	.	.	-0.4
- O=C(c1ccccc1Sc1ccccc1[N+](=O)[O-])N1CCCCC1
  5.8	4%	-0.3	-4	16	?	.	.	.	0.4
- C=CCN(C(=O)c1ccccc1)c1ccc(OC)cc1
  .	14%	3.9	1	-6	-3	.	.	.	-0.2
- O=C(c1ccc(F)cc1)c1c[nH]c(C(=O)NCc2ccco2)c1
  .	-2%	0.0	-3	-5	1	.	.	.	?
- O=S(=O)(c1ccc(-c2cn3ccccc3n2)cc1)N1CCOCC1
  .	-8%	-2.3	-2	0	-13	.	.	.	-0.4
- CC(C)Oc1ccc(Cc2cnc(=S)[nH]c2N)cc1
  -0.6	?	0.2	0	8	-5	1	4	3.1	1.0
- CC1CCN(CC(=O)Nc2ccc(S(=O)(=O)N3CCC(C)CC3)cc2)CC1
  0.4	.	1.3	1	10	-3	2	6	0.9	0.3
- Cc1ccccc1C[n+]1cccc2ccccc21
  50*	.	4.8	9	-16	3	12	12	0.3	-1.2
- CC(=O)N1C(=O)/C(=C2\SC(=S)N(NC(=O)c3ccc(O)cc3)C2=O)c2ccccc21
  -1.7	5%	0.2	-3	-14	8	12	8	1.5	-0.1
- Cc1ccc(/C=N/n2c(C3CCCCC3)n[nH]c2=S)s1
  .	.	7.7	3	0	0	.	.	.	0.1
- CC1(c2ccccc2)NC(=O)N(CC(=O)NNC(=O)c2cccc(Cl)c2)C1=O (centres undefined)
  -0.9	-4%	.	6	.	.	.	.	.	-0.3
- Cc1cc(NC(=O)c2ccc(F)c(S(=O)(=O)N3CCCCC3)c2)no1
  -0.7	.	-5.5	.	5	-11	6	2	-1.8	.
- Cc1cnc(C(=O)OCC(=O)Nc2cc(-c3cc(C)c(C)cc3C)nn2-c2ccccc2)cn1
  1.1	3%	-0.5	-1	14	56	-16	-21	-1.7	-0.4
- CC(=O)Nc1ccc(S(=O)(=O)NCCC(=O)N2CCc3ccccc32)cc1
  8.7	-11%	4.7	3	-34	-4	7	10	1.2	1.1
- Cc1ccccc1-c1noc(-c2ccc(O)cc2)n1
  -9.6	-7%	-4.9	25	-18	-25	-46	-40	-9.5	-5.8
- COc1ccccc1C(=O)NCCN1CCN(C(=O)c2ccccc2OC)CC1
  .	2%	7.3	-13	2	7	.	.	.	0.4
- COc1ccc(S(=O)(=O)N2CCC3(CC2)OCCN3S(=O)(=O)c2ccc(C)cc2)cc1OC
  -4.5	.	2.7	-8	13	-3	9	-13	4.3	-0.9
- O=C1CCc2cc(S(=O)(=O)N3CCC(C(=O)Nc4nccs4)CC3)ccc2N1
  -0.4	5%	-4.5	.	-16	15	14	26	4.7	1.3
- CCOC(=O)c1ccccc1NC(=O)Cc1ccccc1OC
  .	-2%	-1.9	-7	1	17	.	.	.	1.0
- CC(C)/C=N/NC(=O)c1cc(Br)ccc1O
  .	.	-1.1	-7	-15	-5	.	.	.	0.4
- CC(C)=CCC[C@](C)(O)C1CC[C@]2(C)C1C(O)CC1[C@@]3(C)CCC(O)C(C)(C)C3C(O[C@@H]3OC(CO)C(O)C(O)C3O[C@@H]3OC(C)C(O)C(O)C3O)C[C@]12C (some centres undefined)
  -3.1	.	.	-1	.	.	4	9	8.3	1.1
- COc1c(O)ccc(/C=N\NC(=O)c2ccc3c(c2)OCO3)c1[N+](=O)[O-]
  -8.3	-6%	-3.5	-3	-3	-2	10	11	1.9	-0.2
- C#CCOCCOCCOCCNc1nc(N2CCN(C(=O)Cn3cc(CCCN=C(N)N)nn3)CC2)nc(N2CCN(C(=O)[C@H](CCCCN)n3cc(CCCC)nn3)CC2)n1
  15	.	.	-4	.	.	9	9	4.0	-0.2
- COC(=O)Cn1ccc2cc(S(=O)(=O)N3CCCCCC3)ccc21
  -16	3%	0.3	-6	-8	-20	-4	-4	1.4	0.4
- Cc1ccc(NC(=O)c2ccc(OC(=O)COc3cccc(Cl)c3)cc2)cc1
  .	4%	11	.	-15	-19	.	.	.	-2.6
- CCN1CCN(c2ccc(S(=O)(=O)N3CCCCC3)cc2NC(=O)c2cccc(F)c2)CC1
  -2.2	-3%	-2.0	1	49	-11	-4	-3	0.0	0.1
- COc1c(O)c(O)c2oc(-c3ccccc3)cc(=O)c2c1OC
  -3.1	-3%	-2.3	.	-9	28	-11	6	-3.9	-0.4
- CCc1nc(NCc2ccco2)c2oc3ccccc3c2n1
  .	2%&12%	6.3	-2	27	10	.	.	.	-0.3
- CCCN(CC(=O)Nc1ccccc1C)C(=O)c1ccc(N2CCCCCC2)c([N+](=O)[O-])c1
  8.3	.	-1.0	8	35	-8	-15	-49	-3.9	-0.9
- Nc1ccnc(=O)[nH]1
  -2.9	.	0.5	-3	-5	-9	5	14	-2.4	-1.0
- Cc1cccc(N/C(=N\S(=O)(=O)c2ccccc2)C(F)(F)F)c1
  .	0%	0.2	.	-2	-1	.	.	.	0.6
- O=C(NCc1cccnc1)Nc1cccc(Cl)c1Cl
  1.0	.	4.9	-4	38	2	-1	-3	-1.6	0.7
- COc1ccc(C(=O)O/N=C(\N)c2ccccc2)cc1
  -3.2	-1%	-1.0	-3	-6	-20	6	11	-0.7	-8.2
- Brc1ccc(-c2nnc3ccc(Nc4ccccc4)nn23)cc1
  .	?	2.4	1	9	-2	.	.	.	0.9
- O=[N+]([O-])c1cc(C=Nc2ccc3ccccc3c2)ccc1Br
  0.8	2%	-0.8	9	5	-5	-1	-5	-2.4	0.0
- O=C(COc1coc(CN2CCN(c3ccc(F)cc3)CC2)cc1=O)NCC1CCCO1 (centres undefined)
  -5.9	-5%	-2.9	.	-9	-10	1	3	1.2	-0.1
- CC1C(=O)Nc2ccccc2N1C(=O)c1ccc(Cl)cc1 (centres undefined)
  -8.1	-2%	3.2	-1	12	0	-2	-1	-1.4	0.4
- O=[N+]([O-])c1ccc2c(c1)C(N1CCOCC1)/C(=C/COc1ccc3ccccc3c1Br)O2 (centres undefined)
  .	2%&-4%	0.5	14	34	21	.	.	.	-0.6
- CC1CCN(C(=O)CCCOc2cc(=O)n(C)c3ccccc23)CC1
  .	6%	2.4	-10	9	8	.	.	.	0.4
- NC(=O)Nc1ccc(C(=O)OCC(=O)Nc2ccc(Cl)cn2)cc1
  -9.8	33%	-0.9	3	-6	-5	6	5	-1.3	0.5
- CCN(CC)C(=O)Oc1ccc2cc(Br)ccc2c1
  .	-7%	-1.6	2	-4	-4	.	.	.	0.1
- CN(c1ccccc1)S(=O)(=O)c1ccc(C(=O)N2CCc3ccccc3C2)cc1
  2.0	-13%	4.9	1	19	-15	-37	-53	14	0.9
- COc1ccc(OC(C)C(=O)N(C)Cc2nc(-c3cccc(C)c3)no2)cc1 (centres undefined)
  -0.5	.	3.4	-4	13	-2	-7	-15	8.6	0.1
- O=C(Cc1ccc([N+](=O)[O-])cc1)Nc1ccon1
  0.2	.	-1.6	1	-9	-9	6	8	1.1	1.1
- COc1ccc(CNC(=O)c2cc3ccccc3oc2=O)cc1
  -7.0	-1%	3.2	2	9	-9	7	-8	-1.2	-0.3
- CN(CC(=O)N1CCCCCC1)S(=O)(=O)c1cccc2cccnc12
  -1.5	29%	2.0	-8	11	8	1	4	-3.0	0.3
- CC(CN1C(C)CCCC1C)OC(=O)c1ccc(F)cc1 (centres undefined)
  2.0	-2%	-0.6	-3	-3	-7	4	4	-1.9	-0.6
- CNc1cc(NS(=O)(=O)c2ccc(N)cc2)nc(NC)n1
  -1.7	.	.	1	.	.	-7	5	2.3	2.0
- Cc1ccc(CN(C)C(=O)C2CCC(=O)N(CCc3ccccc3)C2)o1 (centres undefined)
  -7.2	.	-2.8	.	0	-23	2	1	-1.2	.

Other entries follow.
Under each structure: AF4-AF9 inh	Vif A3G	RanGTP-Imp inh	Beta apoptosis	T cruzi inh	Calb FLC	Ecoli rRNA inh	Ecoli rRNA inh OD600	Ecoli rRNA inh RFP	A1 inh
- O=C(NNC(=O)c1cccnc1SCc1cccc([N+](=O)[O-])c1)c1ccccn1
  -3.1	-1%	2.9	.	65*	?	-2	-6	-1.5	0.1
- CCCc1nc2ccccc2n1CCc1ccccc1
  -1.1	15%	?	-1	2	3	-26	-31	-6.0	0.3
- COC(/C=C/Nc1ccc(Cl)cc1)=C(C#N)C#N
  -0.9	.	27*	-1	-16	-27	14	10	-2.3	-0.4
- O=C(CSCc1cccc(Br)c1)N1CCOCC1
  .	-4%	0.5	-1	-12	0	.	.	.	-0.1
- CCN(CC)c1ccc(C(=O)NNC(=O)CNC(=O)c2cccs2)cc1
  -0.9	0%	.	-4	.	.	-2	-5	-0.4	0.1
- COc1ccc(C(=O)Nc2nc3c(s2)CCCC3)cc1S(=O)(=O)N1CCCc2ccccc21
  .	9%	-5.3	37	48	2	.	.	.	-0.6
- O=C(Cc1cccs1)N/N=C/C=C/c1ccco1
  -1.5	3.7µM*	-3.2	1	4	-8	10	1	4.9	0.3
- CS(=O)(=O)c1ccc(-n2nnc3ccccc32)c([N+](=O)[O-])c1
  2.9	.	-2.1	.	-4	1	-6	10	4.2	1.0
- Cc1ccc(NC(=O)c2cccc3c2C(=O)N(C2CCCCC2)C3)c(Cl)c1
  .	.	1.5	-7	32	-9	.	.	.	2.2
- COc1ccc(NS(=O)(=O)c2cccc(C(=O)NCC(c3cccs3)N3CCOCC3)c2)cc1 (centres undefined)
  -2.0	0%	.	-2	.	.	-5	-22	6.0	0.1
- CCN1/C(=C2\C(=O)N(C)C(=S)N2C)C=Cc2cc(OC)ccc21
  5.0	-5%	-0.7	-6	-1	-11	5	1	0.3	0.9
- CCOc1ccc(S(=O)(=O)NCC(=O)N(C)Cc2cccnc2)cc1
  .	-3%	1.1	-15	-12	-2	.	.	.	-0.7
- CCc1cccc(C)c1N1C(=O)CN(Cc2ccccc2)C1=S
  -3.5	.	-1.6	-1	-2	-4	2	-45	-8.4	-0.3
- COC(=O)c1sccc1-c1ccc(C(N)=O)o1
  .	7%	3.0	-1	-1	17	.	.	.	0.4
- CCOc1ccc(CSC2=NCCN2)cc1Cl
  .	-4%	0.7	-16	57*	4	.	.	.	0.8
- COc1ccc(C(CNC(=O)c2oc3ccc(OC)cc3c2C)N2CCCC2)cc1 (centres undefined)
  -4.5	-3%	-1.3	-7	17	-11	-6	-14	0.6	0.7
- CCOC(=O)C1CCCCN1S(=O)(=O)c1ccc2c(c1)CC(C)N2C(=O)C1CCC1 (centres undefined)
  2.5	.	3.3	12	12	2	-31	-45	-8.2	0.6

Screening data: PubChem BioAssay, several laboratories
